# INS promoter inh – TRM-6 insulin promoter activity inhibition; TRM-6 cells (human fetal islet line), insulin promoter-eGFP reporter, imaging; reporter expression induced with tamoxifen; inhibition, % at 2 µM; 130,000 tested, 0.9% active;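 active = inhibition above the mean plus 3 SD, with well images judged a real hit on visual review, cut at about 60% in these data, passing the limit was not always enough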
# PKD1 inh – inhibitors of human PKD1 kinase. Q15139. PKD1 kinase fluorescence polarization assay. inhibition, %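 (about 10 µM by stock and volumes)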. 200,000 tested, 0.056% active;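 active = inhibition of 50% or more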;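 also: controls were vehicle for no effect and a reference inhibitor for full effect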
# Target sequence (Q15139 whole entry, looked up): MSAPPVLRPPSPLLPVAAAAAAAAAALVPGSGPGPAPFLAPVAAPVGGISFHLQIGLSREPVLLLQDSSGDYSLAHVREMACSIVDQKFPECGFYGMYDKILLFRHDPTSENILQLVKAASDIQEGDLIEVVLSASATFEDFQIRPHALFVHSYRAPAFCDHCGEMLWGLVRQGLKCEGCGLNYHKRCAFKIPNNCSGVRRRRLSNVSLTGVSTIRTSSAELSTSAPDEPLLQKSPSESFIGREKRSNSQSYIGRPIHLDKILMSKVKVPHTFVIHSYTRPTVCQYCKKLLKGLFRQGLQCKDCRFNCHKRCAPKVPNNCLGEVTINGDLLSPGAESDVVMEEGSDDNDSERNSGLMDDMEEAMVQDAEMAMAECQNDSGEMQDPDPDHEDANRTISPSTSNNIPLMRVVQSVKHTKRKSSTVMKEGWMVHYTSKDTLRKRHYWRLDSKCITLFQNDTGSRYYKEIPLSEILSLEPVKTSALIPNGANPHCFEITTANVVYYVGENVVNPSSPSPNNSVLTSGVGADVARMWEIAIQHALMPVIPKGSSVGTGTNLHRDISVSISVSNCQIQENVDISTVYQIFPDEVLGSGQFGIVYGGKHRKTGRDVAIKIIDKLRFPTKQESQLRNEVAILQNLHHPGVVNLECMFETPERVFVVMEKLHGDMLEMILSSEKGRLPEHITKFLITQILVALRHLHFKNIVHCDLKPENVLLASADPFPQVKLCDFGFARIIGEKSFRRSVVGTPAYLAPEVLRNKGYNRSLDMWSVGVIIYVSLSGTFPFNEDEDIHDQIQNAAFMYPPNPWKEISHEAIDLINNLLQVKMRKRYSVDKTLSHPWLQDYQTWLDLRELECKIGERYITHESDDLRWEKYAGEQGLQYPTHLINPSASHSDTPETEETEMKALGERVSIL
# GALR2 agonist – GALR2 (human) receptor agonism | O43603 | GALR2-expressing cells, agonist activation read-out | activation, %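 (tested at 5 µM)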 | 140,000 tested, 0.48% active;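 active = above mean plus 3 SD of all compounds, about 5% in these data, not always enough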;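 also: 0% = vehicle buffer wells and 100% = reference agonist at full effect; tested in CHO reporter cells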
# HSV replic up – HSV replication enhancement; 220,000 tested, 0.005% active; HSV replication augmentation in cells, fold increase; maximum fold increase; AID 1956;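 active = peak rise of 1.5-fold or more in the series; tested in PC3 cells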;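 also: first round at 10 µM; read as green reporter fluorescence; hits show the peak of a series up to 25 µM; 1 = signal of infected wells without compound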
# RGS16-Gao HTS – RGS16-Galphao interaction regulator (human); bead-based flow cytometry RGS16-Galphao binding, fluorescence; actives lie on both sides; binding response (% of control), % at 10 µM; 220,000 tested, 0.38% active; AID 1441;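 active = below 25% or above 175%, edge rows of some plates excepted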;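 also: Galphao activated by GDP with aluminum fluoride before binding; 100% = wells without compound and 0% = beads without RGS; some results beyond the cut were filed as inactive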
# INS promoter inh cell count – also measured in INS promoter inh; calls as there; normalized cell count, %; measured here: cell count, toxicity; reference of the scale not given here;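 cells exposed to compound for 48 h; stained nuclei by imaging scaled within each plate; lower means fewer cells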
# HSV replic up primary fold – second read-out of HSV replic up, no call of its own (marks repeat the call); fold increase; compound at 10 µM; measured here: primary screen fold increase 10 uM; tested in PC3 cells;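 GFP signal in the first replicate; 1 = infected wells without compound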
# The depositor's hits bear a star; i = inactive; x = not tested or not shown; [ ] = remark or other dose.
SMILES,INS promoter inh,INS promoter inh cell count,PKD1 inh,GALR2 agonist,HSV replic up,HSV replic up primary fold,RGS16-Gao HTS
O=C(NCc1cccc(Cl)c1)c1cc(COc2ccc3ncccc3c2)on1,x,x,-4,x,i,0.9,98
C=CCN=C1NN=C(c2cc(C)n(CCOC)c2C)CS1,-14,73,-5,-1.1,i,1.1,81
N#CCCN(Cc1ccccc1)C(=S)NC(=O)c1ccccc1,-38,109,0,-4.3,i,0.99,102
Cc1ccc(/C=N/Nc2cccc3cccnc23)c(O)c1,x,x,-6,-0.9,i,0.77,101
COc1ccc(N2CCN(C(=O)Nc3ccc(S(=O)(=O)N(C)C)cc3)CC2)cc1,-20,131,-7,-1.8,i,0.83,105
CC(C)c1ccc2c(c1)C(c1cccs1)=NNC(c1ccncc1)=N2,0,116,-7,x,i,0.86,102
COc1cc(/C=C/C(=O)NCCN2CCOCC2)cc(OC)c1OC,-24,81,-15,-2.3,i,0.88,109
COc1ccc(C(C)C)cc1S(=O)(=O)n1ccnc1C,-7,86,-7,-0.8,i,0.97,117
Cc1cc(NC(=S)N(CCN2CCCCC2)Cc2ccco2)ccc1Cl,x,x,-2,x,i,0.8,101
COc1ccc(-c2nn(-c3ccccc3)cc2/C=C/C(=O)O)cc1[N+](=O)[O-],x,x,x,x,i,0.87,108

# Entries of single compounds, quoted from the list. Values in the order: INS promoter inh | INS promoter inh cell count | PKD1 inh | GALR2 agonist | HSV replic up | HSV replic up primary fold | RGS16-Gao HTS
# COc1ccc(N2CCN(C(=O)Nc3ccc(S(=O)(=O)N(C)C)cc3)CC2)cc1 reads -20 | 131 | -7 | -1.8 | i | 0.83 | 105
# CC(C)c1ccc2c(c1)C(c1cccs1)=NNC(c1ccncc1)=N2 reads 0 | 116 | -7 | x | i | 0.86 | 102
# COc1cc(/C=C/C(=O)NCCN2CCOCC2)cc(OC)c1OC reads -24 | 81 | -15 | -2.3 | i | 0.88 | 109
# COc1ccc(-c2nn(-c3ccccc3)cc2/C=C/C(=O)O)cc1[N+](=O)[O-] reads x | x | x | x | i | 0.87 | 108

# The listing picks up, starting 3 compounds before the break.
SMILES,INS promoter inh,INS promoter inh cell count,PKD1 inh,GALR2 agonist,HSV replic up,HSV replic up primary fold,RGS16-Gao HTS
COc1ccc(C(C)C)cc1S(=O)(=O)n1ccnc1C,-7,86,-7,-0.8,i,0.97,117
Cc1cc(NC(=S)N(CCN2CCCCC2)Cc2ccco2)ccc1Cl,x,x,-2,x,i,0.8,101
COc1ccc(-c2nn(-c3ccccc3)cc2/C=C/C(=O)O)cc1[N+](=O)[O-],x,x,x,x,i,0.87,108
O=C(NCc1ccco1)c1cccc(NC(=O)c2ccco2)c1,17,180,2,-0.8,i,0.97,97
Cc1cccc(C)c1NC(=O)NNC(=O)c1cc(C(C)(C)C)nn1Cc1ccccc1,x,x,x,x,i,1.1,96
Cc1cccc(/C=c2\s/c(=C\C(=O)C(C)(C)C)[nH]c2=O)c1,-11,97,-1,-0.4,i,0.94,112
CCCC(c1nnnn1Cc1ccco1)N1CCC(C(N)=O)CC1 (stereo not drawn),28,90,5,-2.1,i,0.98,96
COc1ccccc1NS(=O)(=O)c1ccc(N/N=C/c2c(C)nn(-c3ccccc3)c2N2CCCC2)c([N+](=O)[O-])c1,4,62,0,-2.0,i,0.89,117
O=C(CCCN1Cc2ccccc2C1)c1ccc(F)cc1,x,x,-6,-1.5,i,0.97,98
O=C(Nc1ccc2oc(-c3ccncc3)nc2c1)c1cccs1,-45,142,-6,-3.3,i,0.9,99
Cc1ccc(CNC(=O)CCCN2C(=S)NC(C)(C)CC2C)cc1 (stereo not drawn),x,x,-6,x,i,0.83,105
CCCN1C(=O)/C(=N\OCC(=O)Nc2ccc(C(C)C)cc2)c2ccccc21,x,x,-7,-0.9,i,0.92,101
Cn1nc(C(C)(C)C)cc1NC(=O)Nc1ccc(F)cc1F,x,x,x,x,i,0.88,103
O=C(Nc1cccc(F)c1)N1C2CCC1CC(O)(c1cccnc1)C2 (stereo not drawn),27,65,-6,x,i,1,131
CCOc1ccc(C(NC(C)=O)c2ccc(OC)c(OC)c2)cc1 (stereo not drawn),-57,138,0,x,i,0.78,100
CCOc1ccccc1N(CC(=O)NCc1ccc(OC)cc1)S(C)(=O)=O,x,x,2,-1.0,i,1.1,105
O=C(Cc1ccc(F)cc1)Nc1ccccc1Sc1ccccc1,-36,50,3,-1.4,i,1.1,97
O=C(CN1CCN(CC(=O)Nc2ccc3c(c2)OCO3)CC1)Nc1ccc(F)cc1,-19,169,-1,-3.3,i,1.1,202
CC(NC(=O)c1ccccc1NC(=O)c1ccncc1)c1ccccc1 (stereo not drawn),x,x,-1,x,i,0.93,94
O=c1oc2ccccc2cc1-c1nc2c(s1)CCc1ccccc1-2,x,x,-12,10*,i,1.1,105
CCC1=Nc2cc(C(=O)O)ccc2Sc2ccccc21,2,121,-2,-0.1,i,0.91,100
C=CCN(CC=C)S(=O)(=O)c1ccc(NC(=S)NC(=O)c2ccc(-c3ccccc3)cc2)cc1,17,110,-1,-3.2,i,0.91,204
CC(=O)N/C(=C\c1ccc(F)cc1)C(=O)N(C)C,6,95,-7,-0.7,i,1,59
Cc1c(C(=O)O)sc2nc3n(c(=O)c12)CCC(C)CC3 (stereo not drawn),-288,74,-2,-2.5,i,0.86,100
Cc1cc(CNC(=O)COc2ccc(F)cc2F)c2ccccc2n1,50,119,2,x,i,0.96,93
Cc1cc(/C=N/n2cnnc2)c(C)n1-c1ccc(Cl)cc1Cl,-462,68,-4,0.8,i,0.98,82
CCN(CC)S(=O)(=O)c1cccc(C(=O)OCC(=O)c2ccc3c(c2)OCCO3)c1,-31,95,-8,-0.4,i,0.92,104
O=C(COc1ccc(S(=O)(=O)NC2CCCCC2)cc1Cl)NCC1CCCO1 (stereo not drawn),-58,66,2,-0.5,i,0.96,109
COc1ccc(OC)c(NC(=O)N2CCCC(C)C2)c1 (stereo not drawn),x,x,x,x,i,0.89,98
CCOC(=O)c1cc([N+](=O)[O-])c([N+](=O)[O-])cc1NC(C)=O,-3,39,1,-0.7,i,1.1,70
CC(C)C(=O)Nc1cccc(-c2csc(-c3ccccc3)n2)c1,10,110,6,-0.1,i,0.96,106
Nc1nc(SCC(=O)NC2CCCC2)[nH]c(=O)c1NC(=O)c1cccs1,x,x,x,x,i,0.96,91
COc1ccc(CN=CC2=C(O)CNC2=O)cc1,-293,106,-8,-2.2,i,0.93,108
CCOC(=O)c1sc2ncn(CC(=O)NCC3CCCO3)c(=O)c2c1C (stereo not drawn),16,92,-23,-0.1,i,0.97,100
Cc1nc(-c2cccc(NS(=O)(=O)c3ccc4ccccc4c3)c2)cs1,-22,145,-5,-1.0,i,0.79,101
O=c1ccnc(S/C=C/c2ccccc2)[nH]1,x,x,0,-0.6,i,1.3,92
O=C1C2CC=CCC2C(=O)N1c1ccc(Cc2ccncc2)cc1 (stereo not drawn),27,95,-10,-0.8,i,0.93,107
COc1ccc(/C(O)=C2/C(=O)C(=O)N(c3nc(C)c(C)s3)C2c2ccco2)cc1 (stereo not drawn),x,x,-13,-0.2,i,1,99
O=C(CNC(=O)c1cccc(Br)c1)N/N=C/c1cn[nH]c1-c1ccccc1,-49,133,3,-0.4,i,1,88
COc1ccc(N=Nc2cc(C)c(O)c(CN3CCCCC3)c2)cc1,x,x,x,x,i,0.99,100
CCOC(=O)CNC(=O)c1cccnc1,-29,205,0,-2.3,i,0.76,68
C/C(=N\O)C(=O)OC1CC(C)CCC1C(C)C (stereo not drawn),x,x,0,0.0,i,0.96,100
O=C(CSCC(=O)N1CCCCC1)Nc1nc(-c2ccc(Cl)s2)cs1,x,x,-4,-5.5,i,0.77,35
O=C(N/N=C/c1cccnc1)c1ccc2c(c1)OCCO2,-47,67,2,-2.1,i,1,112
CN1C(=O)CSc2ccc(NC(=O)N3CCC(N4CCCCC4)CC3)cc21,x,x,-8,0.0,i,0.81,278*[activator]
Cc1csc(NC(=O)c2ccccc2[N+](=O)[O-])n1,38,60,6,-0.1,i,1,98
Cn1cccc1C(=O)OCC(=O)N1c2ccccc2NC(=O)C1(C)C,x,x,-2,x,i,1.1,102
CCC1=NN(C(=O)Cc2ccccc2)C(O)(c2ccncc2)C1 (stereo not drawn),-14,98,-6,x,i,1,105
Cc1cc(NC(=S)NC(=O)/C=C/c2ccc(S(=O)(=O)N3CCOCC3)cc2)ccc1Br,x,x,-5,x,i,0.71,99
O=C(CCNC(=O)c1ccc([N+](=O)[O-])cc1)Nc1cccc(S(=O)(=O)N2CCCCC2)c1,x,x,x,x,i,1.1,98
CC(Oc1cccc2cccnc12)C(=O)N/N=C/c1ccccc1 (stereo not drawn),x,x,-1,x,i,0.86,102
O=C(O)CNS(=O)(=O)Cc1ccccc1,x,x,x,x,i,1.2,101
COc1ccc(Oc2nc(C)nc3c2oc2ccccc23)cc1,7,109,25,-3.9,i,1,89
# Next results
SMILES,INS promoter inh,INS promoter inh cell count,PKD1 inh,GALR2 agonist,HSV replic up,HSV replic up primary fold,RGS16-Gao HTS
CC(C)CC(c1nnnn1C1CCCC1)N1CCN(C(=O)c2ccco2)CC1 (stereo not drawn),x,x,-2,-1.1,i,0.99,130
CCc1nc(SCC(=O)NCc2ccco2)c2c3c(sc2n1)CCCC3,-34,156,1,0.9,i,1,98
CCN(CC)c1cc(C)c(C#N)c2nc3ccccc3n12,x,x,x,x,i,0.93,100
O=C(COc1ccc2ccc(=O)oc2c1)N1CCN(c2ccccc2)CC1,x,x,0,x,i,0.93,98
CCS(=O)(=O)CCn1c([N+](=O)[O-])cnc1C,-14,132,-1,-0.7,i,0.53,99
Cc1noc(C)c1CSc1ccc(Br)cc1,12,58,-13,0.6,i,0.9,89
CCN1CCN(Cc2ccc(NC(=O)c3ccc(C)c(NC(=O)c4ccnnc4)c3)cc2C(F)(F)F)CC1,x,x,x,x,i,0.88,103
Cc1ccc2nc(NC(=O)CSCc3ccccc3)sc2c1,24,124,-4,-2.3,i,0.97,99
CC12C(=O)N(Cc3ccco3)C(=O)C1C1c3ccccc3C2c2ccccc21 (stereo not drawn),x,x,0,0.4,i,0.96,101
CC1CCCN(C(=O)COc2ccc(Nc3ccccc3)cc2)C1 (stereo not drawn),x,x,-2,x,i,0.84,99
Cn1c(CSCc2ccc(F)cc2)nnc1SCC(=O)Nc1cccc(C(=O)O)c1,x,x,x,x,i,0.85,100
O=[N+]([O-])c1ccc(CN2CCOCCOCCOCC2)cc1,3,54,-10,-1.7,i,0.96,108
CN1CCN(C(=O)C2=C[C@@H](c3ccc4c(c3)OCO4)C[C@@H](OCc3ccc(CO)cc3)O2)CC1,x,x,6,x,i,1.1,97
COc1ccc(COCC(O)CN2CCC(C(N)=O)CC2)cc1 (stereo not drawn),x,x,x,x,i,0.85,106
CCCOC(=O)c1ccc(Oc2c(-c3ccc(O)cc3O)n[nH]c2C)cc1,-7,116,-5,-0.6,i,0.89,90
O=C(NC1CCCCC1)NC1(C(=O)N2CCN3CCCC3C2)CCCCC1 (stereo not drawn),-48,82,-4,0.9,i,0.62,106
Oc1ccc(N2CCN(C(c3ccccn3)c3nnnn3C3CCCC3)CC2)cc1 (stereo not drawn),x,x,-5,-2.0,i,0.85,100
O=C1NN(c2ccccc2)C(=O)/C1=C\c1ccccc1OCC(=O)N1CCOCC1,49,80,-9,-2.5,i,0.93,98
CC(=O)C(C(C)=O)c1c(Cl)c(O)c(O)c2c(C(=O)c3ccccc3)coc12,x,x,0,-1.5,i,1.1,83
O=C(NC(Cc1ccccc1)C(=O)O)c1ccc(S(=O)(=O)N2CCCCC2)cc1 (stereo not drawn),37,88,-2,-4.2,i,0.78,105

# Bioassay records: PubChem, several laboratories
